# Screening results: PubChem BioAssay, National Center for Advancing Translational Sciences (NCATS)
# miR-21 reporter = qHTS Assay for Modulators of miRNAs and/orActivators of miR-21; HeLa miR-21 FLuc reporter, luciferase, 48 h; Potency, µM (highest dose often 38.3 µM), inactives show top-dose reporter change, positive = more light; 340,000 tested, under 10 active; active = well fitted rising curve with a large enough effect; inconclusive = small, poorly fitted or top-dose-only effect; inactive = no such curve, though single readings can be large or run the other way;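 further: % of control where 0% means no effect; miR-21 action dims this reporter so a rising signal means less miR-21 action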
#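 HeLa cells endogenously expressing miR-21, stably carrying CMV-driven firefly luciferase with a downstream miR-21 binding site, 2000 cells/well. Titrations up to approximately 40 uM, 48 hours; luciferase luminescence read.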
# Rango dissoc inh = qHTS Assay for Inhibitors of RanGTP induced Rango (Ran-regulated importin-beta cargo) - Importin beta complex dissociation. 340,000 compounds, 0.071% hits. Snurportin-1 (Homo sapiens) + GTP-binding nuclear protein Ran (Homo sapiens) + Importin …. Biochemical FRET Rango-importin beta, RanGTP-induced dissociation. Potency, µM (highest dose often 46.1 µM), for inactives: at the top dose activity change, negative = inhibition. AID 540253, 2011; active means falling FRET ratio curve, often poorly fitted, with flat reads before Ran was added; inconclusive means other falling curves, or compound fluorescence or quenching; inactive means flat or rising ratio curve;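 further: potency means the concentration at half of the fitted maximal effect; % of control where 0% means no effect; nearly all actives have a fitted effect of over 45% in size; -100% = wells without RanGTP and RCC1; the record marks most hits as doubtful in a second field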
#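 Two FRET readings bracket the reaction: one 5 min after compound meets Rango–importin beta, another 45 min after RanGTP-RCC1 (0.6 uM Ran, 0.2 uM RCC1, 2 mM GTP) is added. Only the second defines inhibition.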
# GLA inh pH 4.5 = qHTS Assay for Inhibitors of Human alpha-Galactosidase at pH 4.5 | activity change, negative = inhibition, % at 105 µM | purified enzyme, 4-MU-alpha-Gal fluorescence, pH 4.5 | AID 1467, 2008 | 230,000 tested, under 10 active; inconclusive = small, poorly fitted or top-dose-only inhibition, or a rising curve; inactive = flat fitted curve, though single readings scatter; no compound was filed as active;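 further: 0% = full activity with enzyme and -100% = basal without enzyme; dose as in the result columns while the protocol names 77 µM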
# Rango-impB inh = qHTS Assay for Inhibitors of Rango (Ran-regulated importin-beta cargo) - Importin beta complex formation; Potency, µM (series often up to 92.2 µM), without a hit: at the highest dose inhibition of complex formation; 340,000 compounds, 0.031% hits; Rango CFP/YFP FRET sensor + importin beta, 45 min; active = rising FRET ratio curve, often small or poorly fitted; inconclusive = mostly compound fluorescence or quenching in the first reads; inactive = flat curves in all reads;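 further: potency means the concentration at half of the fitted maximal effect; 0% = DMSO wells and 100% = buffer wells lacking importin beta; nearly all actives have a fitted effect of over 15% in size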
# Target sequence (Q14974 whole entry, looked up): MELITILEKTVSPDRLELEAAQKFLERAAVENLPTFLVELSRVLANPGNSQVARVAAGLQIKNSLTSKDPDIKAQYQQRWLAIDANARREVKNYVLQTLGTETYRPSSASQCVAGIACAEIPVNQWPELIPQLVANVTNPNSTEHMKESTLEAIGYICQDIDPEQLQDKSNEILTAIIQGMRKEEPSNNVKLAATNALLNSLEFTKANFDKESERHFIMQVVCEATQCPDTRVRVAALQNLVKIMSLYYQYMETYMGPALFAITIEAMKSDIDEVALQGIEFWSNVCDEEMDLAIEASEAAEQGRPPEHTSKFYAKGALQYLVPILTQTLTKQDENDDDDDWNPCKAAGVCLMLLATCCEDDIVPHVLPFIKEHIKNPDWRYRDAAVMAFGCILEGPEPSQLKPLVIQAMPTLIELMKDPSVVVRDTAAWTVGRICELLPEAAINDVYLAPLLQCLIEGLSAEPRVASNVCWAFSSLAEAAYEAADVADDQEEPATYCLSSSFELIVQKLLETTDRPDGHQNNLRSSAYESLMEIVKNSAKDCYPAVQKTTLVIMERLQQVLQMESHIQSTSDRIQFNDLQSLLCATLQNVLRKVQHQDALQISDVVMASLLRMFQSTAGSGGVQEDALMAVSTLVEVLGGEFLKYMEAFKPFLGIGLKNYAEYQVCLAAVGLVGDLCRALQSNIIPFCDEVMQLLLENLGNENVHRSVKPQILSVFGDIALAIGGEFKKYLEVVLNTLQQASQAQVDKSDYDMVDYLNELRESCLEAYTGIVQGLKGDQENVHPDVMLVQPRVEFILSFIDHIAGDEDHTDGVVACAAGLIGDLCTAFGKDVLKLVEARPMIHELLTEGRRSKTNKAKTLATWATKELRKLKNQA
#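 FRET biosensor (snurportin 1 IBB flanked by EYFP and cerulean), 50 nM, with compound 5 min, then 0.125 microM importin beta in PBS, 1 mM DTT, 0.02% Tween-20, 0.1% BSA. CFP/YFP ratio read after 45 min at room temperature; pre-read flags interference.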
# The depositor's hits bear a star; ? = inconclusive; . = no result given. This is a subset; the hit share may differ from the screen's.
1. NC(=O)[C@H]1CC2(CC(c3cccc(NC(=O)c4ccccc4)c3)=NO2)CN1C(=O)[C@H]1CCC(=O)N1 (some centres not stated)
2. Cc1nn(-c2ccc(F)cc2)c(Cl)c1/C=C(\CC(=O)O)c1nc2ccccc2s1
3. N#Cc1c(-c2ccc(Cl)cc2Cl)nc2n(c1=O)CCS2
4. COc1ccc(S(=O)CC(=O)Nc2ccccc2Cl)cc1 (configuration not stated)
5. CCOc1ccccc1NC(=O)c1cnc(NS(=O)(=O)c2ccccc2)nc1
6. Cc1ccccc1-c1nc(C(=O)NCC2CCCO2)cc2c1[nH]c1ccccc12 (configuration not stated)
7. CCOc1ccccc1OCCOc1cccc(C(F)(F)F)c1
8. O=C(CC1C(=O)NCCN1Cc1ccc(-c2ccccc2)cc1)NC1CCC1 (configuration not stated)
assay / entry,1,2,3,4,5,6,7,8
miR-21 reporter,2.1%,-0.4%,-5.6%,-4.3%,-2.5%,25.3%,0.4%,-3.2%
Rango dissoc inh,18.5%,-6.2%,-11.9%,2.6%,13.6%,0.9%,13.6%,-19.5%
GLA inh pH 4.5,-2.5,-25.7,-4.9,7.7,.,.,4.5,-5.7
Rango-impB inh,-0.7%,-1.5%,?,3.8%,-1.1%,6.3%,0.0%,?

9. Nc1cccc2c1C(=O)N(C(=O)/C=C/c1cccc(F)c1)C2=O
10. CC(=O)NC1C(OC(=O)/C=C/c2ccccc2)OC(COC(C)=O)C(OC(C)=O)C1OC(C)=O (configuration not stated)
11. O=C(NCc1ccccc1CN1CCCCC1)c1ccc(Cl)cc1N1CCCC1=O
12. COc1cc2c(cc1OC)C(/C(C#N)=N\O)=NC(C)(C)C2
13. CC1CCc2c(sc(NC(=O)c3ccco3)c2C(=O)O)C1 (configuration not stated)
14. CCCCn1c(N)c(N(Cc2ccccc2OC)C(=O)COc2ccc(F)cc2Cl)c(=O)[nH]c1=O
15. Cc1cc(C)c(C)c(S(=O)(=O)N2CCN(CC(=O)Nc3ccc([N+](=O)[O-])cc3)CC2)c1C
16. O=C(Nc1ccccc1Cl)c1ccccc1Oc1ccc(C(F)(F)F)cc1[N+](=O)[O-]
assay / entry,9,10,11,12,13,14,15,16
miR-21 reporter,1.6%,2.1%,.,-22.3%,18.7%,-0.7%,-5.7%,11.2%
Rango dissoc inh,?,-11.3%,-7.2%,6.0%,-1.0%,14.7%,-11.4%,-3.6%
GLA inh pH 4.5,-4.0,.,.,-4.9,.,.,7.9,-13.2
Rango-impB inh,?,-0.7%,-0.4%,-2.1%,?,0.7%,0.2%,-2.4%

17. Cc1ccc(C)c(NC(=O)c2nc(-c3ccccc3)n(-c3ccccc3)n2)c1
18. CCCn1nnnc1SCC(=O)N1CCCc2ccccc21
19. Cc1ccc(NC(=O)CS(=O)CC(=O)Nc2cccc(C)c2C)cc1F (configuration not stated)
20. Cc1c(-n2c(SCC(=O)NC(C)C(C)C)nc3ccccc3c2=O)c(=O)n(-c2ccccc2)n1C (configuration not stated)
21. CNC(=O)Nc1cccc(NC(=O)NC)n1
22. c1cc2nnnn2nc1N1CCCCC1
23. O=C1CCCN1CCC1CCCCN1Cc1nc(COc2ccccc2)no1 (configuration not stated)
24. CCn1c(CSc2nc3ccccc3s2)n[nH]c1=S
assay / entry,17,18,19,20,21,22,23,24
miR-21 reporter,12.3%,-43.8%,-0.1%,-9.3%,-2.6%,-3.0%,1.3%,-25.7%
Rango dissoc inh,4.5%,9.2%,-21.4%,-21.9%,-5.4%,-1.7%,11.2%,-0.1%
GLA inh pH 4.5,-9.1,-2.4,7.3,-4.0,4.9,11.2,3.1,5.6
Rango-impB inh,4.0%,-1.4%,1.5%,1.7%,4.0%,-4.2%,-0.8%,?

25. CCn1cc(C(=O)NN)c(=O)c2cc(F)c(NC3CCCCC3)cc21
26. O=S(=O)(c1cccc(-c2nc3ccccc3s2)c1)N1CCCC1
27. O=C(Nc1ccc(NC(=O)N2CCN(c3ccccc3O)CC2)cc1)N1CCN(c2ccccc2O)CC1
28. Cc1cc(C)n(-c2ccc(C(=O)OCC(=O)NCc3ccc(F)cc3)cc2)n1
29. CCOc1ccc(OCCC(=O)OCC(=O)NCc2ccc(Cl)cc2)cc1
30. Cc1ccc(-c2noc(CCC(=O)N(C)c3ccccc3C)n2)cc1
31. Cc1noc(C)c1COc1ccc(C(=O)NCCc2ccc(S(N)(=O)=O)cc2)cc1
32. C[C@@H]1CN([C@@H](C)CO)C(=O)c2cc(NS(=O)(=O)c3ccc(Cl)cc3)ccc2O[C@H]1CN(C)Cc1ccncc1
assay / entry,25,26,27,28,29,30,31,32
miR-21 reporter,-20.7%,-6.6%,16.8%,-3.3%,.,1.8%,.,.
Rango dissoc inh,0.7%,5.8%,2.6%,2.6%,-11.1%,-20.6%,-2.5%,-0.1%
GLA inh pH 4.5,.,-0.7,.,6.5,.,-6.5,.,.
Rango-impB inh,0.5%,-2.3%,-2.9%,-0.5%,?,3.8%,3.0%,1.4%

33. COc1ccc(CNC(=O)c2ccc(N3CCC4(CC3)CC(c3ccc(Cl)cc3)=NO4)c(NC(=O)c3ccccc3)c2)cc1
34. CCOC(=O)c1cc(CO)cc(C(=O)OCC)c1
35. Brc1ccc(CSc2nnc(Cc3c[nH]c4ccccc34)o2)cc1
36. Fc1cccc(Cl)c1/C=N/n1c(-c2cccnc2)n[nH]c1=S
37. COc1cccc2c1OC[C@@H](CO)[C@H]2N(C)C(=O)Nc1ccc(Cl)cc1
38. COCc1c(C(=O)OCC(=O)NCCc2ccc(S(N)(=O)=O)cc2)oc2ccccc12
39. CNC(=O)CC(CC(=O)c1ccccc1)c1ccccc1 (configuration not stated)
40. O=C(Nc1nc(-c2ccccn2)cs1)C1CC1
assay / entry,33,34,35,36,37,38,39,40
miR-21 reporter,.,-8.3%,-6.0%,-2.7%,6.0%,.,.,-47.8%
Rango dissoc inh,1.4%,-10.2%,7.4%,33.3%,-11.5%,-3.4%,2.8%,-23.0%
GLA inh pH 4.5,.,-0.8,2.8,-23.1,-2.0,.,.,6.0
Rango-impB inh,-1.8%,1.6%,0.1%,-2.6%,1.2%,-0.1%,-0.1%,-0.3%

41. COc1ccc(C(=O)C2CCN(C(=O)c3ccc(C)cc3)CC2)cc1
42. O=C1NC[C@H](c2ccccc2)OC(=O)[C@H](Cc2ccc(F)cc2)CC/C=C/C[C@@H]1CC(=O)N(CCO)Cc1ccccc1
43. CC(C)Cc1nnc(NC(=O)CCc2ccccc2)s1
44. Cc1cc(=O)oc(C)c1C(=O)OCC(=O)c1ccccc1
45. COc1ccccc1NC(=O)CCNC(=O)c1ccc(C)cc1
46. O=C(C1CCC1)N1CCN(S(=O)(=O)c2cc(F)ccc2F)CC1
47. CCOC(=O)C1=C(C)N=c2s/c(=C\c3cc(OC)c(OC)c(OC)c3)c(=O)n2C1/C=C/c1ccccc1 (configuration not stated)
48. CC1(C)CC(=O)C=C(NC2CCCCCCC2)C1
assay / entry,41,42,43,44,45,46,47,48
miR-21 reporter,12.9%,.,-21.0%,-17.7%,-4.8%,.,-9.1%,-13.2%
Rango dissoc inh,30.4%,-5.5%,0.1%,8.5%,-5.0%,11.4%,?,-6.0%
GLA inh pH 4.5,-8.5,.,.,0.5,.,.,-4.9,2.6
Rango-impB inh,-0.5%,0.1%,0.3%,-0.8%,-0.4%,1.5%,-3.0%,-0.2%

49. COc1ccc(C(=O)N2CCCCCC2)cc1OC1CCN(C(C)C)CC1
50. O=C(c1cccs1)N(c1ccc(Br)cc1)C1C=CS(=O)(=O)C1 (configuration not stated)
51. O=C1C2CCCN2c2ccc(S(=O)(=O)N3CCOCC3)cc2N1Cc1ccccc1F (configuration not stated)
52. COc1ccc(CNC(=O)CN(C(=O)CCC(=O)Nc2nccs2)c2ccccc2C)cc1
53. Cc1ccnc(SCC(=O)N2CCN(c3cccc(Cl)c3)CC2)n1
54. CCC(Sc1nnc(C)s1)C(=O)Nc1nccs1 (configuration not stated)
55. Cc1c2ccccc2nc2c(F)c(N(C)C)c(F)c(F)c12
56. COc1ccc(Nc2oc(COc3ccc(OC)cc3)nc2C#N)cc1
assay / entry,49,50,51,52,53,54,55,56
miR-21 reporter,-6.9%,-6.9%,-3.9%,-1.7%,-7.3%,0.4%,-41.7%,?
Rango dissoc inh,-9.8%,-8.0%,0.0%,0.7%,16.5%,11.6%,?,-8.3%
GLA inh pH 4.5,.,-2.8,4.8,.,-7.2,2.4,-8.0,-10.9
Rango-impB inh,-2.2%,0.3%,3.2%,?,3.1%,0.1%,?,-4.1%

57. COC(=O)Nc1nnc(-c2ccc(OC)cc2)s1
58. COc1ccc(CCC(=O)Nc2cccc(S(=O)(=O)N3CCCC3)c2)cc1OC
59. COC(=O)C1CCN(C(=O)C(C)Oc2ccc(Cl)cc2Cl)CC1 (configuration not stated)
60. CC1CN(C(C)C(=O)NNC(=O)c2ccc(F)cc2)CC(C)O1 (configuration not stated)
61. Cc1ncc([N+](=O)[O-])n1CC(=O)Nc1ccc(F)cc1F
62. Cc1ccnc(NC(=O)CCC(=O)N(CC(=O)NC(C)(C)C)c2ccc3c(c2)OCCO3)c1
63. CCCn1ccc(O)c(Cc2ccc(Cl)cc2)c1=O
64. Cc1cc(-c2c(C)n([O-])c(C)c(C)[n+]2=O)ccc1F
assay / entry,57,58,59,60,61,62,63,64
miR-21 reporter,-55.3%,.,-5.3%,.,0.4%,4.5%,-1.9%,0.6%
Rango dissoc inh,12.1%,-4.0%,-2.2%,-15.1%,1.1%,-8.2%,-9.0%,-4.7%
GLA inh pH 4.5,-6.9,.,-8.0,.,.,6.0,2.1,3.1
Rango-impB inh,5.3%,0.4%,3.1%,5.2%,-0.4%,0.4%,0.4%,4.8%

# Some entries already given, reduced to GLA inh pH 4.5 and Rango-impB inh:
No. | canonical_smiles | GLA inh pH 4.5 | Rango-impB inh
60 | CC1CN(C(C)C(=O)NNC(=O)c2ccc(F)cc2)CC(C)O1 (configuration not stated) | . | 5.2%
58 | COc1ccc(CCC(=O)Nc2cccc(S(=O)(=O)N3CCCC3)c2)cc1OC | . | 0.4%
59 | COC(=O)C1CCN(C(=O)C(C)Oc2ccc(Cl)cc2Cl)CC1 (configuration not stated) | -8.0 | 3.1%
64 | Cc1cc(-c2c(C)n([O-])c(C)c(C)[n+]2=O)ccc1F | 3.1 | 4.8%

# Three entries already listed, sorted by count of non-hydrogen atoms, largest number first.
1. NC(=O)[C@H]1CC2(CC(c3cccc(NC(=O)c4ccccc4)c3)=NO2)CN1C(=O)[C@H]1CCC(=O)N1 (some centres not stated)
26. O=S(=O)(c1cccc(-c2nc3ccccc3s2)c1)N1CCCC1
55. Cc1c2ccccc2nc2c(F)c(N(C)C)c(F)c(F)c12
assay / entry,1,26,55
miR-21 reporter,2.1%,-6.6%,-41.7%
Rango dissoc inh,18.5%,5.8%,?
GLA inh pH 4.5,-2.5,-0.7,-8.0
Rango-impB inh,-0.7%,-2.3%,?

# Going on with the list.
65. CCN(CC(=O)NCc1ccc(Cl)cc1)C(=O)c1ccc(S(=O)(=O)N(C)C)cc1
66. CSC1=N/C(=C\c2ccc(Br)o2)C(=O)S1
67. CC1CCCN(S(=O)(=O)c2cccc([N+](=O)[O-])c2)C1 (configuration not stated)
68. O=C(CC(c1cccs1)S(=O)(=O)c1ccccc1)c1ccc(F)cc1 (configuration not stated)
69. CC(C)c1nnc(NC(=O)c2nc(S(=O)(=O)Cc3ccccc3)ncc2Cl)s1
70. COC(=O)C(C(=O)OC)[C@@H]1C=C[C@H](C[N+](=O)[O-])N(C(C)=O)C1
71. CS(=O)(=O)N1CCc2cc(C(=O)Nc3ccc(Br)cc3)ccc21
72. CC1CN(CCC(=O)Nc2ccccc2F)CC(C)O1 (configuration not stated)
assay / entry,65,66,67,68,69,70,71,72
miR-21 reporter,4.0%,-3.3%,-0.2%,-9.2%,?,.,-18.7%,-5.0%
Rango dissoc inh,-1.6%,?,-1.4%,-11.1%,-5.1%,16.3%,19.2%,-17.4%
GLA inh pH 4.5,-3.9,-27.7,.,-4.2,.,.,.,.
Rango-impB inh,-2.7%,?,0.1%,0.4%,-0.8%,5.4%,-0.1%,-2.6%
